RGS16-Gao HTS: modulates binding between human RGS16 and Galphao | AID 1441 | 220,000 compounds, 0.38% hits | binding response (% of control), % at 10 µM | bead-based flow cytometry RGS16-Galphao binding, fluorescence; actives lie on both sides | O15492+P09471;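 active = below 25% or above 175%, edge rows of some plates excepted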;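 note: Galphao activated by GDP with aluminum fluoride before binding; 100% = wells without compound and 0% = beads without RGS; some results beyond the cut were filed as inactive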
HSV replic up: increases HSV replication in cells. maximum fold increase. HSV replication augmentation in cells, fold increase. 220,000 compounds, 0.005% hits;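 active = peak rise of 1.5-fold or more in the series; tested in PC3 cells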;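 note: first round at 10 µM; read as green reporter fluorescence; hits show the peak of a series up to 25 µM; 1 = signal of infected wells without compound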
PKD1 inh: inhibitors of human PKD1 kinase; Q15139; PKD1 kinase fluorescence polarization assay; inhibition, %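 (about 10 µM by stock and volumes)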; 200,000 compounds, 0.056% hits; AID 797;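 active = inhibition of 50% or more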;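 note: controls were vehicle for no effect and a reference inhibitor for full effect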
Target sequence (Q15139 whole entry, looked up): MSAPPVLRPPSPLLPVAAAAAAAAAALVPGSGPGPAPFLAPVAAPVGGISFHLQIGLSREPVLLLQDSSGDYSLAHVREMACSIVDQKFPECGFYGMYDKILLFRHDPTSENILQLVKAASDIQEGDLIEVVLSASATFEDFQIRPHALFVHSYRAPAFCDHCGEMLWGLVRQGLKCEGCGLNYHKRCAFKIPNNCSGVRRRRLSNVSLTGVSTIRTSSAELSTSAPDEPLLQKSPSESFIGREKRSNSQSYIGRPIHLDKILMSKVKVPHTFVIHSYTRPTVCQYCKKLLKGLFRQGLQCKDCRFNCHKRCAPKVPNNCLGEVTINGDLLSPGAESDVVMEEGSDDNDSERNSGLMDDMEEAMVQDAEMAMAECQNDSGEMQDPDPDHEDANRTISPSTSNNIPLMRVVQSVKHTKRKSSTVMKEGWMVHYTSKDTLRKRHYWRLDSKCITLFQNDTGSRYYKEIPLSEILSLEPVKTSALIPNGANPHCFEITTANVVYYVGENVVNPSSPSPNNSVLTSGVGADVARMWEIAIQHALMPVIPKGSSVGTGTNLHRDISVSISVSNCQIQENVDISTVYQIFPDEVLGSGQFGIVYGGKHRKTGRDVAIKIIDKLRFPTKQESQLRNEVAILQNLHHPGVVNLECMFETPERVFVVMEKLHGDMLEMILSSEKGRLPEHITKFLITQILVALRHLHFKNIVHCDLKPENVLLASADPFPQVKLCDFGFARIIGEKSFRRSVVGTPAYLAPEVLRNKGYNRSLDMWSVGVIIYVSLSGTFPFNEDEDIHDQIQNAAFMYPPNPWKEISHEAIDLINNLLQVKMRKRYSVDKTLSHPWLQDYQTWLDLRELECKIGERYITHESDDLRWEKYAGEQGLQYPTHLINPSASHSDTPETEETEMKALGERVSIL
GALR2 agonist: GALR2 (human) receptor agonism; O43603; GALR2-expressing cells, agonist activation read-out; activation, %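 (tested at 5 µM)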; 140,000 compounds, 0.48% hits; AID 803;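 active = above mean plus 3 SD of all compounds, about 5% in these data, not always enough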;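 note: 0% = vehicle buffer wells and 100% = reference agonist at full effect; tested in CHO reporter cells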
INS promoter inh: TRM-6 insulin promoter activity inhibition. AID 1273. inhibition, % at 2 µM. 130,000 compounds, 0.9% hits. TRM-6 cells (human fetal islet line), insulin promoter-eGFP reporter, imaging; reporter expression induced with tamoxifen;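 active = inhibition above the mean plus 3 SD, with well images judged a real hit on visual review, cut at about 60% in these data, passing the limit was not always enough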
INS promoter inh cell count: second read-out of INS promoter inh, no call of its own (marks repeat the call); normalized cell count, %; measured here: cell count, toxicity; reference of the scale not given here;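 cells exposed to compound for 48 h; stained nuclei by imaging scaled within each plate; lower means fewer cells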
HSV replic up primary fold: recorded beside HSV replic up, whose call it bears; fold increase; compound at 10 µM; measured here: primary screen fold increase 10 uM; tested in PC3 cells;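 GFP signal in the first replicate; 1 = infected wells without compound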
An asterisk follows results filed as active; i = inactive; . = not tested or not shown.

SMILES	RGS16-Gao HTS	HSV replic up	HSV replic up primary fold	PKD1 inh	GALR2 agonist	INS promoter inh	INS promoter inh cell count
COc1ccc(-c2n[nH]c(=S)n2/N=C/C=C/c2ccccc2OC)cc1	96	i	0.87	-11	-0.2	.	.
COc1ccc2c(Cl)c(C(=O)N/N=C/c3c(C)[nH]c4ccccc34)sc2c1	128	i	1.2	4	-0.5	.	.
CC1CCCN(CCOCCSc2ccccc2)C1 (centres undefined)	121	i	1	-2	-0.5	9	81
COc1ccc(-c2nc(CSCC(=O)NC3CCCc4ccccc43)c(C)o2)cc1 (centres undefined)	116	i	1.1	-9	-2.6	-392	76
Cc1ccc(S(=O)(=O)Nc2cc(-c3ccccc3)nn2C)cc1Cl	105	i	0.75	.	.	.	.
CCOC(=O)C1=C(CS(=O)(=O)c2ccc(C)c(C)c2)NC(=O)NC1c1ccc(O)cc1 (centres undefined)	101	i	0.9	-7	.	21	114
CC1(C)Cc2c(sc3c2C2=NCCN2C=N3)CS1	107	i	0.94	-3	-0.4	87*	195*
CCN(CC)c1ccc(NC(=O)CSc2nnc3nc(C)cc(C)n23)cc1	93	i	0.88	0	0.1	-14	121
CCCCc1nnc(NC(=O)C2CC(=O)N(c3ccc4c(c3)OCCO4)C2)s1 (centres undefined)	102	i	1.1	8	-0.2	.	.
N#CC1=C(SCC(=O)Nc2ccccc2)NC(=O)CC1c1ccc(O)cc1 (centres undefined)	103	i	0.99	-17	-2.3	.	.
Cc1ccc(-n2cccn2)c(CN2CCCC(C(=O)c3ccc4c(c3)OCO4)C2)c1 (centres undefined)	106	i	0.85	2	.	.	.
Cc1nc(N2CCC(C)CC2)c2c(C)c(C(=O)Nc3ccc(C(F)(F)F)cc3)sc2n1	106	i	1	0	.	-50	150
CC(=O)Nc1ccc(OCC(=O)NCCc2ccc(Cl)cc2)cc1	103	i	1.1	-7	0.5	.	.
Nc1nc(NCc2cccs2)nn1-c1ccccc1	.	i	0.9	-1	-1.9	49	98
COc1ccc(C(=O)c2coc3ccc(O)c(CN4CCCC4)c23)cc1	101	i	0.86	-8	-2.4	.	.
Cc1cc(C)c(C)c(S(=O)(=O)NCc2ccco2)c1C	103	i	0.92	-7	-2.0	-253	58
CCOC(=O)c1c(C)[nH]c(C(=O)CSc2nc3ccccc3o2)c1C	102	i	0.92	-13	-0.8	-15	81
O=C(NCc1cccnc1)c1ccc(COc2ccc3c(c2)CCC3)o1	106	i	0.91	-6	-3.1	-13	79
COc1ccc(NC(=O)CNC(=O)Cn2c(C)cc3ccccc3c2=O)c(OC)c1	105	i	1	-1	.	.	.
O=C1OC(c2ccccc2)=N/C1=C\C=C\c1ccccc1[N+](=O)[O-]	93	i	0.98	-17	-2.3	21	139
Cc1ccc(C)c(N2CCN(C(=O)Nc3ccc4c(c3)N(C)C(=O)CS4)CC2)c1	104	i	0.99	-2	.	-47	51
Cc1ccc(C)c(N2CCN(C(=O)Cn3c(=O)[nH]c4ccsc4c3=O)CC2)c1	99	i	0.95	-4	-0.9	0	111
COc1ccccc1CNC(=O)COC(=O)Cc1ccsc1	111	i	0.99	-4	.	36	34
N#C/C(=C\c1ccccc1)C(=O)OCC(=O)N1CCCC1	103	i	1	4	.	.	.
O=C(O)Cc1sc(Nc2ccc(Cl)cc2)nc1-c1cccs1	101	i	1.1	3	.	.	.
O=C(NC1CC1)C1=C[C@@H](c2coc3ccccc3c2=O)C[C@@H](OCCCCO)O1	101	i	0.94	.	.	.	.
N=c1n(CC(=O)c2ccc([N+](=O)[O-])cc2)c2ccccc2n1Cc1ccc(Cl)cc1	105	i	0.85	13	-0.2	.	.
Cc1cc(C2=NNC(=NC3CC3)SC2)c(C)n1-c1ccccc1	105	i	0.92	3	0.1	.	.
O=C(O)c1ccccc1C(=O)Nc1ccc(-n2nccc2C(F)(F)F)cc1	98	i	1.1	.	.	.	.
COc1ccc(/C=N/N2CCN(C)CC2)cc1O	110	i	0.79	-8	-1.1	12	87

Complete entries, looked up by structure. Order of values: RGS16-Gao HTS, HSV replic up, HSV replic up primary fold, PKD1 inh, GALR2 agonist, INS promoter inh, INS promoter inh cell count
O=C(NC1CC1)C1=C[C@@H](c2coc3ccccc3c2=O)C[C@@H](OCCCCO)O1 as listed: 101, i, 0.94, ., ., ., .
Cc1ccc(C)c(N2CCN(C(=O)Cn3c(=O)[nH]c4ccsc4c3=O)CC2)c1 as listed: 99, i, 0.95, -4, -0.9, 0, 111
O=C(O)Cc1sc(Nc2ccc(Cl)cc2)nc1-c1cccs1 as listed: 101, i, 1.1, 3, ., ., .

Later entries
SMILES	RGS16-Gao HTS	HSV replic up	HSV replic up primary fold	PKD1 inh	GALR2 agonist	INS promoter inh	INS promoter inh cell count
Nc1c2nc(-c3ccccc3Cl)[nH]c(=O)c2nc(=O)n1-c1ccccc1	103	i	0.87	.	.	.	.
COc1ccc(C(=O)N/N=C/c2ccc(OC)c(CSc3ccccn3)c2)cc1	110	i	0.86	-2	-0.6	-17	113
O=C(Nc1cccc(F)c1)C1CC(=O)N(c2ccc(Cl)cc2)C1 (centres undefined)	96	i	0.99	-10	-0.1	-4	131
NS(=O)(=O)c1ccc(N=NN2CCCCC2)cc1	103	i	0.95	-1	.	-40	155
Cc1ccc(C(=O)NCCN2C3=NC[C@H](C(C)C)N3C[C@H]2Cc2ccc(O)cc2)cc1Br	94	i	0.63	4	.	.	.
CCN1CCN(S(=O)(=O)c2cc(OC)c(Cl)cc2OC)CC1	116	i	0.88	-11	-2.9	29	88
CC/C(=C\C(=O)c1ccncc1)Nc1ccc(Br)cc1	113	i	1	-9	-0.9	-4	138
Cc1[nH]c2ccccc2c1SCCNC(=O)c1ccc(S(=O)(=O)N2CCCC2)cc1	111	i	0.95	-5	-0.2	7	120
CCCC(=O)Nc1ccc(C(=O)Nc2ccc([N+](=O)[O-])cc2OC)cc1	97	i	1	1	.	.	.
CC(=O)NC1(NC(C)=O)CCN(C)C(c2ccccc2)C1C (centres undefined)	97	i	0.96	-8	-0.7	.	.
COc1cc(/C=N/NS(=O)(=O)c2ccccc2)ccc1OS(=O)(=O)c1ccc(C)cc1	102	i	0.8	-7	-0.9	-17	122
O=C(NCc1ccccc1)C(Cc1ccccc1)NS(=O)(=O)c1cccc2nsnc12 (centres undefined)	98	i	0.84	1	0.4	-73	69
CCN(CC)S(=O)(=O)c1ccc2c(c1)c(=O)c(C(=O)N1CCc3ccccc3C1)cn2C	98	i	0.74	-21	-0.4	.	.
CC(=O)c1c(C)[nH]c(C(=O)N2CCc3ccccc3C2)c1C	106	i	0.97	-4	-2.5	27	117
Cc1cc(NC(=O)c2cccc(S(=O)(=O)N3CCCCCC3)c2)no1	58	i	0.89	-2	-1.6	23	85
O=C(Nc1ccc2c(c1)oc1ccccc12)c1ccc2c(c1)OCO2	94	i	0.71	-5	-2.2	-65	110
COc1cc(/C=N/NC(=O)C(=O)NCC2CCCO2)ccc1OCC(=O)N1CCOCC1 (centres undefined)	102	i	0.98	5	.	25	132
Cc1c(Cl)c(C(=O)N2CCCc3ccccc32)nn1C	105	i	0.96	0	-2.5	.	.
CCSc1ccccc1C(=O)NCc1ccco1	101	i	0.9	2	-0.6	0	106
COc1ccc(C(=O)CSc2nnc(CNC(=O)c3ccc(OC)cc3)n2C)cc1	113	i	1.1	-6	3.0	-3	80
COc1cc(/C=N/NC(=O)C(=O)Nc2ccccn2)ccc1O	116	i	0.97	-1	-0.4	-7	71
CCN(CC)CC(=O)Nn1c(C)nc2c(ncn2-c2ccccc2)c1=O	97	i	1	.	.	.	.
Cc1nc2c(cc1C#N)C(=O)c1ccccc1-2	18*	i	1.1	0	-0.4	-10	70
COc1cc(-c2nnc3sc(-c4cccs4)nn23)cc(OC)c1OC	106	i	0.76	-7	1.9	-34	121
CN1CCN(c2nc3c(c(=O)n(C)c(=O)n3C)n2CCSc2nc3ccccc3s2)CC1	109	i	0.94	3	.	.	.
O=C(NC(NC(=O)c1ccccc1)c1ccccc1)c1ccccc1	98	i	0.94	-1	-3.3	-120	44
O=C(Nc1ccccc1F)c1coc(=O)c(Br)c1	108	i	1	-6	.	-20	103
CCn1c(Oc2ccc(F)cc2)nc2c1c(=O)n(C)c(=O)n2C	107	i	0.92	-1	.	65	141
O=C(CN(Cc1cccs1)S(=O)(=O)c1ccc(S(=O)(=O)NC2CCCCC2)cc1)Nc1ccccc1	101	i	0.84	43	0.8	-84	129
Cc1nonc1CC(=O)N1CCCC(C(=O)c2ccc(Cl)cc2)C1 (centres undefined)	104	i	1	6	.	.	.
CC1CCCC(C)N1C(=O)CSc1nc2ccccc2s1 (centres undefined)	105	i	0.9	-3	-2.5	-21	141
FC(F)Oc1ccc(NC(=S)Nn2cnnc2)cc1	94	i	1	-9	.	-113	43
CC(C)CCOc1cccc(OCC(=O)NC2CCS(=O)(=O)C2)c1 (centres undefined)	100	i	0.95	-10	0.1	-21	132
CCn1c(CN2CCN(CCO)CC2)nc2ccccc21	100	i	1	1	.	21	107
O=c1c2ccccc2sc2ccc(Cl)cc12	105	i	0.97	-10	0.2	-23	128
CC(=O)NC(=O)COC(=O)/C=C/c1c(C)nn(Cc2c(Cl)cccc2Cl)c1Cl	104	i	0.98	-6	-1.2	21	104
CCc1ccc(-n2c(SCC(=O)N3CCC(C(=O)O)CC3)nnc2-c2ccncc2)cc1	100	i	1	-10	.	9	132
CCOc1ccccc1NC(=O)NCc1cccnc1	107	i	0.98	-3	.	46	94
N#CC(c1ccc(Cl)nn1)c1ccc(Cl)cc1Cl (centres undefined)	122	i	0.9	-1	-0.5	17	93
COc1ccc(N/C=C/C(=O)c2ccc3c(c2)OCO3)cc1OC	97	i	0.79	-5	-0.9	33	109
CCC1CCCCN1C(=S)NC(=O)c1cccs1 (centres undefined)	93	i	0.92	2	.	.	.
COC1=CCC2([N+](=O)[O-])CN(CC(=O)O)CC1([N+](=O)[O-])C2 (centres undefined)	103	i	1.1	2	-1.1	7	142
Cc1ccc2c(c1)COc1c3ccc(C(=O)N[C@@H](C)CO)cc3nn1-2	81	i	0.78	.	.	.	.
CC(C)Cc1cc(C(=O)Nc2cc(Br)ccc2O)no1	98	i	1	8	-0.6	.	.
Cc1c2c(nc3ccccc13)CCC(C)C2 (centres undefined)	99	i	1	4	.	.	.
O=c1c2ccccc2c(-c2ccccc2)nn1Cc1ccc(Cl)cc1	74	i	0.99	-5	-0.1	-30	77
CN(Cc1ccccc1)C(=O)[C@H]1CCC(=O)N1Cc1ccco1	93	.	.	-2	-2.3	14	128
CCOC(=O)c1ccc(NC(=O)c2nc[nH]c2C(=O)N(C)Cc2ccccc2)cc1	107	i	0.79	.	.	.	.
CCOc1ncccc1C(=O)Nc1ccc2c(c1)OCO2	102	i	0.99	-1	.	.	.
COC(=O)Cc1c[nH]c2cccc(OCC(O)CN(Cc3ccccc3)C(C)C)c12 (centres undefined)	74	i	0.95	2	0.7	-94	78

Part of the list above in another layout:
Under each structure: RGS16-Gao HTS | HSV replic up | HSV replic up primary fold | PKD1 inh | GALR2 agonist | INS promoter inh | INS promoter inh cell count
- CCC1CCCCN1C(=S)NC(=O)c1cccs1 (centres undefined)
  93 | i | 0.92 | 2 | . | . | .
- COC1=CCC2([N+](=O)[O-])CN(CC(=O)O)CC1([N+](=O)[O-])C2 (centres undefined)
  103 | i | 1.1 | 2 | -1.1 | 7 | 142
- Cc1ccc2c(c1)COc1c3ccc(C(=O)N[C@@H](C)CO)cc3nn1-2
  81 | i | 0.78 | . | . | . | .
- CC(C)Cc1cc(C(=O)Nc2cc(Br)ccc2O)no1
  98 | i | 1 | 8 | -0.6 | . | .
- Cc1c2c(nc3ccccc13)CCC(C)C2 (centres undefined)
  99 | i | 1 | 4 | . | . | .
- O=c1c2ccccc2c(-c2ccccc2)nn1Cc1ccc(Cl)cc1
  74 | i | 0.99 | -5 | -0.1 | -30 | 77

The results go on:
SMILES	RGS16-Gao HTS	HSV replic up	HSV replic up primary fold	PKD1 inh	GALR2 agonist	INS promoter inh	INS promoter inh cell count
CN(C(=S)SCc1ccccc1)C1CCS(=O)(=O)C1 (centres undefined)	106	i	0.89	-7	.	-35	142
O=C(O)c1ccc(NC2=C(Cl)C(=O)c3ccccc3C2=O)cc1	93	i	1.1	.	.	.	.
COc1ccccc1-c1nnc2sc(COc3ccccc3)nn12	95	i	0.98	3	-0.7	-57	105
COc1ccc(C(=O)NC(=S)NCc2ccco2)cc1OC	111	i	0.78	-9	-3.4	-63	142
O=C(O)c1[nH]c2ccc(Cl)cc2c1CC(=O)N1CCN(c2ccccc2)CC1	89	i	1	-5	-3.6	67	124

Bioassay records from PubChem BioAssay.

Rows are unselected; any-hit rate near 1.3%.
